Source: PubChem BioAssay (ICCB-Longwood Screening Facility, Harvard Medical School)
PV pol inh: poliovirus RNA polymerase inhibition | P03300 | poliovirus polymerase elongation, fluorescence polarization; hits give low values | % elongation, % (compound at 16.7 µg/mL) | hit rate 0.66% among 150,000 | AID 588519; in the data active = % elongation below about 90%; also: some results filed as inactive read as strong as hits
Target sequence (P03300 1749-2209 limits assumed): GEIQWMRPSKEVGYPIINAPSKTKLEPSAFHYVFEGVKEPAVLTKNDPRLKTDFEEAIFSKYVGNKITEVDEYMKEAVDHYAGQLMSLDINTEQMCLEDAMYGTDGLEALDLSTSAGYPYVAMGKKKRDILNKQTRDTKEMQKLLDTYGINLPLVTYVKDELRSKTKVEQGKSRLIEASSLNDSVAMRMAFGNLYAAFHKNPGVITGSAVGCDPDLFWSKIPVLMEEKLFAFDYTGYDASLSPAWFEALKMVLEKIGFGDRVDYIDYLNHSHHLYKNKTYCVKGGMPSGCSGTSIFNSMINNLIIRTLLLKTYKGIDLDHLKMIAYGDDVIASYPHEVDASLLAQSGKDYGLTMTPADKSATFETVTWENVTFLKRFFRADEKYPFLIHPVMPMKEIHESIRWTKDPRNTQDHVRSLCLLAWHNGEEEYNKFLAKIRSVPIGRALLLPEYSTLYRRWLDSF
Mtb MbtI inh: blocks the Mycobacterium tuberculosis siderophore enzyme MbtI | P9WFX0 | purified MbtI enzyme, fluorescence intensity read-out | inhibition, %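 (about 17 µg/mL by stock and volumes)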 | hit rate 0.89% among 100,000 | AID 493033;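 active = above 50% in both replicates, above 80% if mildly self-fluorescent; inactive = the rest, strongly fluorescent compounds included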;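 also: 0% = mean of negative and 100% = mean of positive controls; one replicate is shown; some compounds called inactive have numbers as strong as hits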
Mtb MenB inh: Mtb MenB enzyme inhibition | P9WNP5 | MenB enzyme assay, absorbance read-out; some hits fall short of the stated cut | inhibition, %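 (about 12 µg/mL by stock and volumes)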 | hit rate 0.43% among 100,000;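 active = mean of two replicates above 30%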;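 also: 0% = no compound and 100% = wells with inactive enzyme; the first replicate is given; strong numbers were not always called active; inactives centre near -10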
Target sequence (P9WNP5 whole entry, looked up): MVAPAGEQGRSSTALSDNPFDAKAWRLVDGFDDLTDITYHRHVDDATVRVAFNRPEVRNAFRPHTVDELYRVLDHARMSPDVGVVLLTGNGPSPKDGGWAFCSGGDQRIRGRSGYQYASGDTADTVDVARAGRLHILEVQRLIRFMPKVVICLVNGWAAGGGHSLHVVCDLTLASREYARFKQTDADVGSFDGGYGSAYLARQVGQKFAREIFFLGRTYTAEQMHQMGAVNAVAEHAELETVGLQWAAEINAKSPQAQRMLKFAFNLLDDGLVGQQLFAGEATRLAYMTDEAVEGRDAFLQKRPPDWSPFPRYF
PV pol inh intensity: recorded beside PV pol inh, whose call it bears; % elongation; measured here: total intensity read-out; formula for this scale not given here;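 total fluorescence in place of polarization; lower means less elongation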
Numbers without * were called inactive; . = no result given.

Structure,PV pol inh,PV pol inh intensity,Mtb MbtI inh,Mtb MenB inh
O=C(NCC(=O)N1CCOCC1)c1ccc(Br)cc1,101.0,104.0,-14.6,-12.2
Cc1ccccc1-c1nc2scc(-c3cccs3)c2c(=O)o1,100.0,100.0,1.7,5.5
Cc1ccccc1CN1CCN(C(C)C)CC1,103.0,105.0,1.6,10.4
CCc1ccc(Oc2c(C(F)(F)F)oc3c(CN(C)C)c(O)ccc3c2=O)cc1,101.0,106.0,-22.6,-22.4
Cn1cnnc1SC/C(O)=C(\C#N)c1nc2ccccc2[nH]1,107.0,117.0,24.1,-8.4
COc1cc2cc(C)c(SCC(=O)N3CCN(C(=O)c4ccco4)CC3)nc2cc1OC,103.0,102.0,16.5,11.6
CC1(C)C(=O)OC(C(=O)c2ccccc2)C(C)(C)C1=O (stereo not drawn),100.0,103.0,-7.7,-21.0
CCn1c(C2CC2)n[nH]c1=S,.,.,87.1*,-15.3
Cc1nc(S(=O)(=O)NCc2cc(F)cc3c2OCOC3)cn1C,100.0,100.0,13.5,-6.6
CCOc1cc(Cl)c(S(=O)(=O)n2ccnc2CC)cc1Cl,102.0,103.0,-12.3,-7.5

Rewritten with each value named: entries from further up
> CCOc1cc(Cl)c(S(=O)(=O)n2ccnc2CC)cc1Cl
  PV pol inh = 102.0	PV pol inh intensity = 103.0	Mtb MbtI inh = -12.3	Mtb MenB inh = -7.5
> Cc1ccccc1-c1nc2scc(-c3cccs3)c2c(=O)o1
  PV pol inh = 100.0	PV pol inh intensity = 100.0	Mtb MbtI inh = 1.7	Mtb MenB inh = 5.5
> Cn1cnnc1SC/C(O)=C(\C#N)c1nc2ccccc2[nH]1
  PV pol inh = 107.0	PV pol inh intensity = 117.0	Mtb MbtI inh = 24.1	Mtb MenB inh = -8.4

Additional results follow:
Structure,PV pol inh,PV pol inh intensity,Mtb MbtI inh,Mtb MenB inh
CN(Cc1cc(=O)n2ccsc2n1)c1ccccc1,103.0,103.0,1.4,-4.4
COc1cc2oc(=O)c3c(c2cc1Cl)CCCC3,106.0,108.0,5.6,-25.8
CCOC(=O)c1snc(-c2ccc(Cl)cc2)c1N,101.0,102.0,6.6,4.4
Cc1ccc(NC(=O)COC(=O)c2ccc(OCc3c(C)noc3C)cc2)c(C)c1,106.0,100.0,-4.7,-16.5
O=C(O)c1ccc(NC(=NCc2ccccc2)N2CCN(c3ccc(F)cc3)CC2)cc1,99.0,102.0,-6.0,-1.2
COCC(C)n1c(COc2ccccc2F)nnc1SCC(=O)NC(=O)NC1CCCCC1 (stereo not drawn),99.0,96.0,-11.1,-20.9
CCCNC(=O)NC1CCCCCCC1,107.0,100.0,-5.9,-23.7
CC(C)COC(=O)NCc1ccc2c(c1)OCO2,105.0,113.0,.,-1.1
Cc1ccccc1Nc1cc(C(=O)NCc2ccccc2)c2ccccc2n1,100.0,98.0,14.3,-1.8
Cc1ccc(-c2nn(-c3ccccc3)cc2/C=C\C(=O)N2CCOCC2)cc1,101.0,95.0,9.8,.
COc1ccc(C2=NS(=O)(=O)N(C)C(C(=O)N3CCCCC3)=C2)cc1,100.0,103.0,-23.6,-8.3
CC1(C)CC(=O)C=C(Nc2ccccc2NC(=O)c2cnccn2)C1,104.0,103.0,18.6,-20.7
CCN(c1ccccc1C)S(=O)(=O)c1ccc(C)cc1,101.0,100.0,0.8,-3.3
CCOc1ccc(NC(=O)Cn2c3c(c(-c4ccccc4)cc2=O)CCCC3)cc1,104.0,100.0,9.5,0.7
O=C(N=Nc1c(O)n(CN2CCOCC2)c2ccc(Br)cc12)c1ccc(Br)cc1,100.0,100.0,-4.1,-3.5
CC(C)(C)C1CCCCC1NC(=O)c1ccncc1 (stereo not drawn),103.0,102.0,-4.0,-26.8
COC(=O)C(NC(=O)c1ccc(Cl)cc1Cl)C(C)C (stereo not drawn),102.0,103.0,-15.0,-20.8
CC1CCCC(C)N1C(=O)COC(=O)CN1C(=O)c2ccccc2C1=O (stereo not drawn),104.0,100.0,-5.5,-28.1
Cc1noc(C)c1CSCC(=O)O,106.0,97.0,6.2,8.5
CCN(CC)C(=O)c1cnc(-c2ccccc2)nc1C1CCNCC1,102.0,102.0,0.1,-3.7
CC1CC(C)CN(C(=O)c2ccc(C(F)(F)F)cc2)C1 (stereo not drawn),107.0,112.0,-18.4,-3.1
CCOC(=O)C1Cc2c([nH]c3ccccc23)CN1 (stereo not drawn),104.0,101.0,3.2,-46.8
CC(=O)Nc1ccc(OCCOc2ccc(/C=C3/C(=N)N4C=CSC4=NC3=O)cc2)cc1,103.0,97.0,-9.6,-27.6
CC(C)(CNC(=O)Nc1ccc(Cl)c(Cl)c1)N1CCOCC1,103.0,100.0,5.2,9.5
CCCN(CCC)S(=O)(=O)c1ccc2c(c1)CCCN2C(C)=O,102.0,108.0,-5.8,-12.0
Cc1ccc(CNC(=O)c2noc(C)c2Cn2nc(C)cc2C)cc1,100.0,104.0,-5.3,-5.4
Cc1ccc(C=Nc2ccc(Cl)cc2)o1,102.0,117.0,5.5,-43.2
O=c1cc(-c2ccc(O)c(O)c2)oc2cc(O)cc(O)c12,104.0,99.0,7.6,-4.8
CCN(CC)C(=O)COc1ccc2c(CC(=O)O)coc2c1,104.0,102.0,-8.6,-6.1
CSc1ccc(CCNC(=O)C(C)n2sc3ccccc3c2=O)cc1 (stereo not drawn),100.0,103.0,-0.7,2.6
Cc1nc(C)n(C(C)CNS(=O)(=O)c2ccc(C)c(C)c2)n1 (stereo not drawn),103.0,102.0,-6.7,-34.3
C[N+]1(CC(=O)OCCCc2ccccc2)CCCCC1,100.0,95.0,-14.6,.
O=C(O)CCC(C(=O)O)N1C(=O)/C(=C/C=C/c2ccco2)SC1=S (stereo not drawn),89.0*,83.0*,11.0,-201.7
CC1OC(O[C@H]2C[C@@H](O)[C@]3(CO)[C@H]4[C@H](O)C[C@]5(C)[C@@H](C6=CC(=O)OC6)CC[C@]5(O)[C@@H]4CC[C@]3(O)C2)C(O)C(O)C1O (stereo partly drawn),99.0,101.0,8.9,.
COc1ccc(-c2csc(Nc3ccc(S(=O)(=O)Nc4cc(C)on4)cc3)n2)cc1C,102.0,97.0,17.6,-23.9
O=C(CSc1nnc(CNC(=O)c2cccs2)o1)Nc1ccccc1,104.0,106.0,-2.3,-24.4
Cc1cccc(-n2nc(C)c3c(C)cc(=O)oc32)c1,101.0,101.0,-0.9,-1.4
Nc1ccc(/C=C\C(=O)O)cc1,101.0,99.0,4.3,.
O=C(Nc1ccccc1)N1CCCN(c2c(Cl)cncc2Cl)CC1,106.0,110.0,-18.4,-3.8
Cc1ccc(NC(=O)c2oc3ccc(S(=O)(=O)N4CCCC4)cc3c2C)c(C)c1,103.0,104.0,105.2,-29.9
O=C(CCCn1c(=O)oc2ccccc21)NNc1cccc(C(=O)O)c1,98.0,102.0,-22.2,-3.9
N#C/C(C(N)=O)=C(/S)Nc1ccccc1,101.0,98.0,30.0,-16.2
CSc1c(NC(=O)/C=C\C(=O)O)cccc1C(F)(F)F,97.0,105.0,-7.2,-4.0
COCc1cc(C)nc(SCC(=O)OC(C)C)c1C#N,104.0,103.0,-19.9,-10.5
NNC(=O)c1c(O)c2cccc3c2n(c1=O)CCC3,102.0,102.0,-32.4,-14.5
CCOC(=O)c1cc(-c2ccc(S(=O)(=O)Nc3cccc(SC)c3)s2)on1,101.0,105.0,-2.0,-33.5
CCC(=O)Oc1ccc(C(=O)Nc2cc(C(=O)O)cc(C(=O)O)c2)cc1,102.0,105.0,-5.3,-24.0
Cc1cc(=O)oc2cc(OC3OC(CO)C(O)C(O)C3O)ccc12 (stereo not drawn),103.0,107.0,.,-17.7
CCCNC(=O)CCn1c(=O)c2cccn2c2cccnc21,100.0,105.0,2.4,-3.2
Cc1ccc(Sc2c(C)c3cc4c(cc3[nH]c2=O)OCO4)cc1,104.0,104.0,3.7,-18.8

Going on with the list.
Structure,PV pol inh,PV pol inh intensity,Mtb MbtI inh,Mtb MenB inh
CSc1ccc(NC(=O)N2C3CCC2CC(O)(c2cccnc2)C3)cc1 (stereo not drawn),103.0,102.0,-11.0,-29.2
Cc1sc2nc(CCl)[nH]c(=O)c2c1C,98.0,92.0,0.0,.
CC1CCc2nc(NC(=O)c3ccc(Cc4ccccc4)cc3)sc2C1 (stereo not drawn),101.0,98.0,12.7,-33.6
Cc1ccc(C(=O)NC(C)C)cc1,105.0,102.0,.,-25.9
COc1ccc(/C=C2\SC(=S)N(CCCC(=O)O)C2=O)cc1OC,105.0,109.0,0.5,-52.4
Cc1nc2c(c(C)nn2C)c(C)c1CCC(=O)NC1CCCCC1,102.0,101.0,6.7,-1.8
COCC(C)n1c(C)cc(C(=O)COC(=O)c2c(C)nn(-c3ccccc3)c2C)c1C (stereo not drawn),106.0,106.0,-3.2,-6.5
CCc1nnc(NC(=O)C2CCCN2C(=O)Nc2ccccc2)s1 (stereo not drawn),100.0,103.0,-11.8,-3.1
Cc1ccc(-c2nn(Cc3ccccc3)cc2C(=O)N2CCC2)cc1,100.0,109.0,-0.1,4.1
CN(C)/C=N/C(=S)N1CCOCC1,104.0,110.0,5.3,-6.6
O=C(c1cc(Cl)c(O)c(Cl)c1)N1CCc2ccccc2C1,98.0,99.0,15.2,16.9
Cc1ccccc1OCc1nnc(SCCC(=O)O)n1Cc1ccccc1,103.0,99.0,.,-3.6
CCCc1cc(=O)n2[nH]cnc2n1,101.0,100.0,-2.0,6.4
CCCN(CCC)S(=O)(=O)c1ccc(C(=O)NC(=S)Nc2ccc(F)cc2)cc1,102.0,105.0,-7.0,-7.9
CC(=O)Nc1sc2c(c1C#N)CCN(C(C)=O)C2,102.0,102.0,10.5,4.7
O=C(CSc1ccccn1)c1ccc2c(c1)OCO2,104.0,110.0,.,-2.5
COc1cc(Br)cc(CNc2cc(C)on2)c1O,96.0,102.0,.,-8.7
Cc1ccc(S(=O)(=O)N2CCC(C(=O)NC3CC3)CC2)cc1,101.0,104.0,-11.6,-2.1
O=S(=O)(/C=C/c1ccccc1)N1CCNCC1,101.0,102.0,-4.6,.
COc1ccccc1OC(C)C(=O)O (stereo not drawn),100.0,101.0,10.6,2.1
O=C(NC(=S)Nc1ccccc1CO)C1CCCCC1,100.0,104.0,0.4,0.4
C=C(C)CSc1nnc(C)c(=O)[nH]1,104.0,99.0,26.2,-23.5
CN(C)S(=O)(=O)c1ccc(C(=O)N2CCC(c3nc4ccccc4o3)CC2)cc1,108.0,104.0,-11.4,7.4
COc1ccc(OC)c(S(=O)(=O)NC2CCS(=O)(=O)C2)c1 (stereo not drawn),108.0,113.0,-9.2,-14.5
O=C(CN1CCc2ccccc21)NCc1ccc2c(c1)OCO2,105.0,105.0,-6.7,-0.9
CC1Cc2ccccc2N1Cc1nnc(-c2ccccc2)o1 (stereo not drawn),100.0,102.0,-0.6,10.2
Cc1ccccc1NC(=O)Cc1nc(CSc2nnc(-c3ccccc3)n2C)cs1,108.0,104.0,-4.5,-22.7
CC(Oc1ccc(F)cc1)C(=O)O (stereo not drawn),101.0,102.0,-5.7,-2.7
CN(CC(=O)Nc1ccc2c(c1)OCCCO2)C1=NS(=O)(=O)c2ccccc21,96.0,103.0,10.2,-11.1
O=c1[nH]c(CN2CCNCC2)nc2ccccc12,98.0,101.0,-123.1,-9.6
CC(C)CCNC(=O)c1ccc(S(=O)(=O)N2CCCC2)cc1,105.0,110.0,6.5,-0.7
CCC1C(O)=C(c2ccccn2)C(=N)N1c1ccccc1 (stereo not drawn),105.0,107.0,19.4,-30.6
CC(=O)N(Cc1nnc2c3ccccc3c(C)nn12)c1ccccc1,103.0,103.0,2.4,-8.6
Cc1c(C(=O)NC2=NCCS2)oc2ccccc12,99.0,104.0,13.8,5.7
CCOC(=O)COc1nc(-c2ccccc2)cc(-c2ccccc2)c1C#N,103.0,110.0,-6.8,10.5
Cc1cc(C)c(C(=O)COC(=O)c2ccc(N(C)C)cc2)c(C)c1,.,.,-6.1,-43.7
C1CN(c2nsnc2OCCOc2nsnc2N2CCOCC2)CCO1,104.0,106.0,-1.4,-4.2
CCOC(=O)c1c(C)[nH]c(C(=O)COC(=O)c2ccccc2)c1C,99.0,96.0,4.7,-9.3
CS(=O)(=O)c1ccc(-c2nc(-c3ccc(F)cc3)c(-c3ccncc3)[nH]2)cc1,100.0,104.0,.,-0.4
COc1cccc(-n2c(SCC(=O)N3CCCCC3C)nc3ccccc3c2=O)c1 (stereo not drawn),105.0,110.0,29.9,-9.1
O=C(C1CCN(c2ccc(-c3cccs3)nn2)CC1)N1CCN(Cc2ccc3c(c2)OCO3)CC1,100.0,101.0,-15.6,-22.2
N#Cc1ccc(OCC(=O)OCC(=O)N2CCCCC2)cc1,100.0,106.0,-4.0,-2.9

Rows are unselected. About 1.8% of those tested had a hit in this group.
